CapD inh: Bacillus anthracis CapD inhibitors, primary screen, biochemical, fluorescence intensity. z-score (no concentration beside the values). AID 492967, 2010. purified CapD enzyme, fluorescence intensity read-out; stronger effect = lower value; some hits fall short of the stated cut. CapD gamma-glutamyltranspeptidase (Bacillus anthracis Ames Ancestor). 140,000 compounds, 0.23% hits;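 active = z-score under -4 in either of two replicates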;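 also: stock transfer was 100 nL into about 40 µL; score is relative to mean and spread of the plate; one replicate is shown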
AID504770: growth inhibition of E. coli YBA685, primary screen, V. cholerae RctB inhibitors; E. coli YBA685 rctB-dependent plasmid, OD600 growth, 3 h; stronger effect = lower value; 130,000 compounds, 0.27% hits; z-score (concentration not given with the values); AID 504770, 2011;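 active = z-score under -2 on both plates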;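 also: wells of about 30 µL received 100 nL stock; score is relative to mean and SD of the test wells; the first replicate is given; strong numbers were not always called active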
* hit, by the source's call; nt = not tested or not shown; & = joins results of further samples. No enrichment for hits; about 0.37% have a hit in one of these screens.

The first 4 records (preview)
SMILES	CapD inh	AID504770
O=C(Cn1nnc(-c2ccccc2)n1)Nc1ccccc1	0.03	-0.85
CCOC(=O)C1CCN(c2nc(OC)nc(OC)n2)CC1	-0.35	nt
O=C(O)c1ccccc1NCc1ccc2c(c1)OCO2	62	0.8
N/C(=N\O)c1cncnc1N	-0.1	nt

The whole of this part, previewed entries included:
SMILES	CapD inh	AID504770
O=C(Cn1nnc(-c2ccccc2)n1)Nc1ccccc1	0.03	-0.85
CCOC(=O)C1CCN(c2nc(OC)nc(OC)n2)CC1	-0.35	nt
O=C(O)c1ccccc1NCc1ccc2c(c1)OCO2	62	0.8
N/C(=N\O)c1cncnc1N	-0.1	nt
COc1cccc(C2=NOC(C(=O)NC(C)C)C2)c1 (stereo not drawn)	-0.42	-0.95
COc1ccc(/C(C)=N/NC(=O)c2ccc(CN3CCOCC3)cc2)cc1	-0.06	-0.2
CC(=O)N(CN1C(=O)c2ccccc2C1=O)c1ccccc1	nt	2.1
N#CCN(CC#N)C(=O)c1cccs1	-0.5	1.9
O=C(CSc1ccccc1C(=O)Nc1ccccc1N1CCCC1)NCc1ccco1	nt	0.3
O=c1oc(-c2ccccc2)cc(Cl)c1Cl	-1.5	-1
CCC(=O)Nc1nc2ccccc2n1CCN(C)C	-0.54	-0.35
Nc1ccc2nc(-c3ccccc3)c(-c3ccccc3)nc2c1	-1.4	nt
CCOC(=O)CSc1ncc(OC)c(Oc2ccc(Cl)c(Cl)c2)n1	-0.33	nt
CCOC(=O)c1c(C)nn(-c2ncccc2NC(=S)NCc2ccco2)c1C	1.1	-1.1
CC(C)C12C=CC(C)(CC1)C1C(=O)N(c3cccc(Cl)c3)C(=O)C12 (stereo not drawn)	0.6	nt
O=C(NCc1ccc2c(c1)OCO2)c1cccc2ccccc12	-0.14	-0.25
Cc1ccc(CS/C(Nc2ccccc2)=C(\C#N)C(=O)Nc2ccccc2C)c(C)c1	-0.12	nt
C/C=C(\C)C(=O)Nc1cc(C)ccc1-n1cccc1	0.27	0.55
Cc1sc2nc(CSCC(=O)c3cc(C)n(CCC(C)C)c3C)[nH]c(=O)c2c1C	nt	-0.1
CCOC(=O)c1cc(C)n(Cc2ccc(OCC)c(OC)c2)c1C	-0.22	-0.65
O=c1oc(Nc2ccccc2)nc2sc3c(c12)CCCC3	-0.02	nt
OC(COc1ccc(Br)cc1)Cn1ccnc1 (stereo not drawn)	-0.83	-1.1
CC(=O)N=C(N)/N=c1\nc(C)c2ccc(C)cc2n1C(C)=O	nt	-0.35
Cc1ccc(S(=O)(=O)C(F)(F)F)cc1	-0.29	-0.6
CC1=C(C(=O)OCCOc2ccccc2)C(c2cccc([N+](=O)[O-])c2)C2=C(CC(c3cccs3)CC2=O)N1 (stereo not drawn)	0.065	nt
O=C(N/N=C/c1cccs1)c1ccccc1CO	-1.3	nt
CCCNC(=O)Nc1ccc(S(=O)(=O)Nc2ccc(OCC)cc2)cc1	nt	0.85
CC(Sc1nncn1C)c1nnc(-c2cccs2)o1 (stereo not drawn)	nt	-0.6
CC(C)NC(=O)c1ccccc1C(=O)NC(C)C	-0.18	2.6
CCOC(=O)c1c(-c2ccccc2)oc2ccc(OCC(O)CN3CCOCC3)cc12 (stereo not drawn)	nt	1
CCn1c(=O)c2c(nc3n2CCS3)n(C)c1=O	nt	0.1
Cc1ccc(C)c2[nH]c(=O)c(CCNC(=O)C(C)Oc3ccccc3)cc12 (stereo not drawn)	3.7	-0.75
COc1ccc(S(=O)(=O)Nc2cccc3cc(C(=O)NCc4cccc(C(F)(F)F)c4)[nH]c23)cc1	-0.35	nt
O=c1c2c(n3nnnc3n1Cc1ccccc1)-c1ccccc1CC21CCCC1	0.17	nt
CC(NC(=O)c1cccs1)C(=O)N1CCCCC1 (stereo not drawn)	0.035	0.15
Cc1cc(=O)oc2cc(OCC(=O)OCC(=O)c3ccc4c(c3)NC(=O)CO4)ccc12	nt	-0.65

An excerpt of these results, with bars between the fields.
SMILES | CapD inh | AID504770
CC(NC(=O)c1cccs1)C(=O)N1CCCCC1 (stereo not drawn) | 0.035 | 0.15
Cc1ccc(C)c2[nH]c(=O)c(CCNC(=O)C(C)Oc3ccccc3)cc12 (stereo not drawn) | 3.7 | -0.75

The results go on.
SMILES	CapD inh	AID504770
O=C1c2ccccc2-c2c3cc(Br)ccc3nc3c(Nc4ccccc4)ccc1c23	0	nt
CCOC(=O)COc1ccc(C2NC(C(=O)O)CS2)cc1OC (stereo not drawn)	-0.025	-0.5
N#Cc1ccccc1/C=N/NC(=O)c1ccccc1Oc1ccccc1	-0.48	nt
CC1(C)Cc2ccccc2C(C)(C(=O)NN)N1 (stereo not drawn)	0.13	-0.8
CCOc1ccc(C(=O)Nc2ccc(S(=O)(=O)N3CCOCC3)cc2)cc1OCC	nt	-0.6
CCCC1(CCC)NC(=O)N(Cc2cc(=O)oc3c(C)c(C)ccc23)C1=O	nt	-0.35
CN(C)/C=N/c1sc2c(c1C#N)CCC2	nt	0.8
COC(=O)C1=C(C)OC(N)=C(C#N)C1c1ccc2c(c1)OCO2 (stereo not drawn)	0.62	nt
CCCc1[nH]n(-c2ccc(F)cc2)c(=O)c1C=NCCc1ccc(S(N)(=O)=O)cc1	-0.59	nt
CCN(CC)c1nc2ccccc2c(N)c1-c1ccccc1	-0.52	-0.35
c1csc(CNC2C3CC4CC(C3)CC2C4)c1 (stereo not drawn)	nt	-1.1
COC(=O)c1sccc1NC(=O)c1cc(-c2ccc(OC)cc2OC)nc2ccccc12	0.68	nt

Given bar-delimited: 2 of the compounds above.
SMILES | CapD inh | AID504770
CC1(C)Cc2ccccc2C(C)(C(=O)NN)N1 (stereo not drawn) | 0.13 | -0.8
CCOC(=O)COc1ccc(C2NC(C(=O)O)CS2)cc1OC (stereo not drawn) | -0.025 | -0.5

(continued)
SMILES	CapD inh	AID504770
CC(C)CN1CCOC(CNCc2ccc(-c3nc4ccccc4s3)o2)C1 (stereo not drawn)	nt	0.85
COc1cc2c(cc1OC)C(c1c(-c3ccccc3)noc1C)=NCC2	-0.3	-0.8
CC(=O)Oc1ccc(NNc2ccccc2)cc1	-2.2	-0.35
O=S(=O)(Cc1cc(N2CCCC2)nc(-c2cccnc2)n1)c1ccccc1	-0.63	nt
O=C(Nc1ccc(F)c(Cl)c1)C1OC2OC3(CCCCC3)OC2C2OC3(CCCCC3)OC12 (stereo not drawn)	-0.8	nt
COc1ccc(-n2cnc(=O)c(C#N)c2SC)cc1	-1.3	-1.1
C=CCn1c(NC(=O)CC)c(C(=O)OCC)sc1=S	nt	0.1
NS(=O)(=O)c1cc(C(=O)O)cc(N2CCCC2)c1Oc1ccccc1	2.1	nt
Cc1ccc(SCCNS(C)(=O)=O)cc1	nt	1.8
N#CC1CCN(Cc2ccccc2)CC1	0.26	-0.85
COc1cc(NS(=O)(=O)c2ccc(N)cc2)nc(OC)n1	0.14&1.8	-0.4
Cc1cccc(Cn2c(CO)nc3ccccc32)c1	0.1	-1.5
CN(C)c1nc(N2CCN(c3ccccc3F)CC2)cc(C(F)(F)F)n1	0.94	nt
Cc1nc2sc3c(c2c(=O)o1)CCCC3	0.06	nt
OC(CNC1CCN(Cc2ccccc2)CC1)COc1ccc2c(c1)OCO2 (stereo not drawn)	-0.85	nt
CC(C)CC(=O)NC(=S)Nc1ccc2oc(-c3ccccc3)nc2c1	-0.23	2.5
O=C(O)CC1(CC(=O)Nc2cccc(C(F)(F)F)c2)CCCC1	35	-0.2
CC1=NN(C(C)(C)C#N)C(c2ccccc2)C1 (stereo not drawn)	0.02	-0.8
CC1(C)O[C@H]2O[C@H](C(O)COC(=O)c3ccccc3)[C@H](OC(=O)c3ccccc3)[C@H]2O1 (stereo partly drawn)	0.73	-0.1
O=C1NC(=S)NC(=O)C1=Cc1c(F)cccc1Cl	-1.6	nt
CC(=Nc1cccc(O)c1)c1sc2ccccc2c1O	-2.8	nt
CC(=O)Oc1ccc2c(-c3ccccc3)cc(=O)oc2c1C	-0.17	0.75
O=C1OCc2ccc(NS(=O)(=O)c3ccc(C(F)(F)F)cc3)cc21	-0.45	-0.3
CC1CCCCN1C(=O)CN(c1nccs1)S(=O)(=O)c1ccccc1 (stereo not drawn)	nt	1.9
CN(Cc1ccco1)C(=O)c1cc2c(s1)-c1ccc(Cl)cc1S(=O)(=O)C2	5.5	0.35
C=CCNC(=O)c1ccccc1NS(=O)(=O)c1ccc(Br)cc1	0.41	-0.7
O=C(c1ccco1)N(CC1CCCO1)c1nc(-c2ccccc2)cs1 (stereo not drawn)	nt	2.2
COc1ccc(N=C(SC)N2CCOCC2)cc1	-0.29	nt
Cn1cnc(S(=O)(=O)N2CCc3ccccc32)c1	nt	-4.2
CCN(CC)CCCNC(=O)c1sc2ncn(CC(=O)Nc3cccc(C(F)(F)F)c3)c(=O)c2c1C	-0.92	nt
CCOC(=O)CSc1ccc2ccccc2n1	-0.69	-0.85
CC1=CC(C)(C)N(C(C)C)C(=O)N1c1ccc(C)cc1	0.025	-0.6
COc1ccc(Sc2ncccc2-c2nc3ccccc3s2)cc1	-0.43	nt
CCOC(=O)C1CCCN(c2c(C(=O)c3ccccc3)cnc3ccccc23)C1 (stereo not drawn)	-0.54	-0.05
CN(CC(=O)Nc1ccc(OC(F)(F)F)cc1)C(=O)c1ccc(N2CCCC2=O)cc1	nt	-1
O=C(O)c1ccc(S(=O)(=O)c2ccc3c(c2)C(=O)N(C2CCCCC2)C3=O)cc1	nt	-0.35
C=CCn1c2ccccc2n2cc(-c3ccccc3)nc12	-0.55	-1.2
COc1cccc(/C=C2\SC(=S)N(CCCC(=O)Nc3ccccc3C(F)(F)F)C2=O)c1	-0.44	2.2
COc1nc2c(c(=O)n(C)c(=O)n2C)n1C	nt	0
CNc1sc(C(=O)c2cccs2)c(N)c1-c1nc2ccccc2s1	nt	1.6
O=C1CCC/C(=N/NC(=O)c2cc(NS(=O)(=O)c3cccs3)cc(NS(=O)(=O)c3cccs3)c2)C1	nt	-1.6
Nc1nc(N)nc(SCC(=O)N(C2=CCCCC2)C2CC2)n1	nt	-0.25
CC1CCC(C(C)C)C(=O)/C1=C\c1ccc(NC(=O)CCC(=O)O)cc1 (stereo not drawn)	6.5	-1.1
Cc1ccc(N2C(=O)CC(Sc3nc4c(cc3C#N)CCC4)C2=O)cc1 (stereo not drawn)	-0.85	nt
Cc1nc([N+](=O)[O-])cn1C(C)C	-1.7	nt
CC(C)C1OC(N)=NC1=O (stereo not drawn)	nt	-0.5
COc1ccc(C2=Nn3cnnc3SC2)cc1OC	-1.3	-0.55
CCc1c(C)nc2n(c1=O)C(CS(=O)(=O)c1ccc3ccccc3c1)CS2 (stereo not drawn)	nt	-0.95
COc1nc(Nc2ccc(OC(F)(F)F)cc2)nc(NC2CC2)n1	0.11	1.1
O=C(CCCN1C(=O)S/C(=C/c2ccccc2)C1=S)N1CCOCC1	-0.71	-1.6
CCOC(=O)C1=C(N)OC2=C(C(=O)CC(c3ccccc3)C2)C1c1ccc(Cl)c([N+](=O)[O-])c1 (stereo not drawn)	-0.42	nt
Cc1c(C(=O)N2CCCC2)sc2nc(-c3ccccc3)cn12	0.88	-0.65
CC(OC(=O)c1ccccc1NCc1ccco1)C(=O)Nc1ccc2c(c1)OCO2 (stereo not drawn)	nt	0.6
O=C(Cn1nnc(-c2cccs2)n1)N1CCCC1c1ccc2c(c1)OCCCO2 (stereo not drawn)	nt	0.1
Nc1ccc(C(=O)N2N=C(C(F)(F)F)CC2(O)c2ccc(Br)cc2)cc1 (stereo not drawn)	0.51	nt
CCOC(=O)CSC1=C(C#N)C(c2ccc(Cl)cc2)C(C(=O)OC)C(=O)N1 (stereo not drawn)	-0.46	-1.3
CCOC(=O)c1c(NC(=O)c2ccc(Cl)c(Cl)c2)sc(C(=O)Nc2ccccc2F)c1C	0.89	nt
COc1ccc(C2Oc3ccc(Br)cc3C3CC(c4ccc(C)cc4)=NN32)cc1 (stereo not drawn)	-0.59	nt
COc1cc(/C=C2\SC(=S)N(NC(=O)c3ccccc3Br)C2=O)cc(OC)c1OC	-0.2	nt
CC(C)c1ccccc1NN	0.5	0.75

Single records, from the list above.
`CCOC(=O)c1c(NC(=O)c2ccc(Cl)c(Cl)c2)sc(C(=O)Nc2ccccc2F)c1C` as listed: CapD inh = 0.89; AID504770 = nt
`COc1nc(Nc2ccc(OC(F)(F)F)cc2)nc(NC2CC2)n1` as listed: CapD inh = 0.11; AID504770 = 1.1

More structures follow.
SMILES	CapD inh	AID504770
C=CCOc1ccc(CNCc2ccco2)cc1OC	nt	1.4
COc1ccc(CCN2CCCn3c2nc2c3c(=O)n(CC(N)=O)c(=O)n2C)cc1OC	nt	2.7
O=C(N/N=C/c1cccc2c1OCO2)c1ccccc1Oc1ccccc1	6.2	nt
CCCC(=O)Nc1cc(=O)n(C)c(=O)n1C	nt	0.8
CC(=O)N1CCc2c(C)cc(Cl)cc21	0.65	-0.6
O=C(COC(=O)c1ccc2ccccc2n1)Nc1ccccc1-c1ccccc1	0.045	1.4
O=c1[nH]c2ccc(S(=O)(=O)N(CCc3ccccc3)Cc3ccccc3)cc2[nH]c1=O	13	0.6
O=C(N1CC(Oc2ccc(Cl)cc2)C1)N1CC(Oc2ccc(Cl)cc2)C1	0.66	0
CCC(Oc1ccccc1)C(=O)Nc1nccs1 (stereo not drawn)	nt	-0.2
O=C(Cc1coc2ccc3ccccc3c12)OCC(=O)c1cc2c3c(c1)CC(=O)N3CCC2	nt	0
O=C1CCCN1C(=O)CSc1nc(-c2ccccc2)c(-c2ccccc2)o1	nt	0.55
c1coc(CNc2nc(C34CC5CC(CC(C5)C3)C4)cs2)c1	nt	0.7
O=C(Nc1ccc(CN2CCS(=O)(=O)CC2)cc1)c1ccco1	0.32	-0.15
CCS(=O)(=O)c1c(S(=O)(=O)CC)c2c3ccccc3ccn2c1C(=O)c1ccc(Cl)cc1	6.8	nt
